Source: PubChem BioAssay
VACV E9 pol inh – vaccinia E9 polymerase processive synthesis inhibitors, primary screen, biochemical, absorbance; Vaccinia virus DNA polymerase (E9) processive complex; in vitro processive DNA synthesis, absorbance read-out; stronger effect = lower value; some inactives read as strong as hits; AID 493162, 2011; hit rate 0.94% among 46,000; normalized absorbance, % (no concentration beside the values);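 active = replicate mean up to 90% and picked by the depositor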;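 note: 100% = median of the test wells of a plate; 100 nL library stock went into each well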
Numbers without * were called inactive. The list is partial. The share of hits here may be higher or lower than overall.

SMILES	VACV E9 pol inh
O=C(O)c1ccccc1NCc1ccccc1Cl	64
COC(=O)C1=C(C)N(C)C(=O)NC1c1ccc(OC)c(Br)c1 (stereo unspecified)	99
Cc1cc(C)nc(SCc2nnc(SC/C=C/c3ccccc3)o2)n1	100
O=C1Nc2ccccc2O/C1=C\c1ccccc1	106
O=C(CCN1N=C(c2ccccc2)CCC1=O)NCCCN1CCCCCC1	101
Cc1ccccc1NC(=O)Nc1cc2sccc2n1C	102
CN1CCN(c2cc(C(F)(F)F)nc3ccc(F)cc23)CC1	91
O=C(O)CSCC(=O)N1CCN(C2c3ccccc3-c3ccccc32)CC1	96
Clc1ccc(Nc2nnc3c4ccccc4c4ccccc4c3n2)cc1	107
COc1ccc2cc(C3CC(c4ccc(OC)c(OC)c4)=NN3C(=O)c3ccco3)c(Cl)nc2c1 (stereo unspecified)	100
Cc1ccn2c(=O)c(C(=O)O)cnc2c1	107
c1cnc2c(CN3CCCCCC3)cccc2c1	106
CCC(C)[C@H](NS(=O)(=O)c1cccc2ccccc12)C(=O)N[C@H](C=O)Cc1c[nH]c2ccccc12 (stereo partly specified)	100
O=C(NCc1ccccn1)c1cccnc1SCCS(=O)(=O)c1ccc(C(F)(F)F)cn1	95
CC1=CC(=O)N(c2ccn(C)n2)C1=O	95
Cc1c(/C=C2\SC(c3ccccc3)=NC2=O)c(=O)n(-c2ccccc2)n1C	99
CN1CCC(N(C)C(=O)c2cc(-c3ccco3)nc3ccccc23)CC1	97
Cc1cc(-n2nc3ccc(Cl)cc3n2)c(O)c(C(C)(C)C)c1	97
CCOC(=O)c1c(C)oc(N)c1C#N	103
Cc1cc(C)c2c(n1)nn1c(C)c(CCC(=O)NC(C)C)c(C)nc21	88
CCCn1c2ccccc2c2nnc(SCCNS(=O)(=O)c3ccccc3)nc21	95
COCC1=NN(c2ccccc2)C(=O)C1	100
O=C(Nc1ccc2cn[nH]c2c1)c1cc(=O)c2ccccc2o1	96
Cc1cc(C)c(C#N)c(SCCS(=O)(=O)Cc2ccc(Cl)cc2)n1	101
Cn1c(C(=O)NCCC2=CCCCC2)cc2c(=O)n(C)c3ccccc3c21	107
c1ccc(OCCn2c3ccccc3c3nc4ccccc4nc32)cc1	100
CC(C)CCOc1cccc(OCC(=O)Nc2ccncc2)c1	114
COc1ccc(N(C=O)C(C(=O)Nc2c(C)cccc2C)c2ccc(Cl)cc2)cc1 (stereo unspecified)	100
CC(c1ccc(F)cc1)n1cc(C(=O)NCCN(C)C)nn1 (stereo unspecified)	97
O=C(CSc1nc2ccccc2s1)Nc1ccc2c(c1)OCO2	102
CCOC(=O)N(c1ccccc1)S(=O)(=O)c1ccccc1C	100
CC1(C)S[C@@H]2[C@H](NC(=O)C(C(=O)O)c3ccccc3)C(=O)N2[C@H]1C(=O)O (stereo partly specified)	100
C(=N\c1nccs1)/c1cccc2c1OCOC2	98
CCC(CC)C(=O)c1c[nH]c(C(=O)O)c1	92
Cc1cccc(NC(=O)COC(=O)/C=C/c2ccc(F)cc2)c1C	100
O=C1c2[nH]nc(-c3ccc(Br)cc3)c2C(c2cccs2)N1c1ccc(Cl)cc1 (stereo unspecified)	99
CC1(C)CC(=O)C=C(Nc2ccccc2)C1	101
COC(=O)c1c(-c2ccc(Br)cc2)noc1N	98
O=C(CN1C(=O)C2C3C=CC(C3)C2C1=O)NC1CCCc2ccccc21 (stereo unspecified)	100
O=C(Nc1nccs1)c1ccc2c(c1)CCCC2	100
Cc1ccc(C(=O)CC(C(=O)O)c2cn(CCC#N)c3ccccc23)cc1 (stereo unspecified)	100
Cc1ccc(C=Nc2ccc(Nc3ccccc3)cc2)s1	99
O=S(=O)(c1ccc(Cl)c(Cl)c1)N1CCn2c(nc3ccccc32)C1	94
Cc1ccc(S(=O)(=O)N(C)CC(=O)N2CCC(Cc3ccccc3)CC2)cc1	100
CN(C(=O)Cn1c(=O)n(CCCCC(=O)NC2CCCC2)c(=O)c2ccccc21)C1CCCCC1	100
OC(CN1CCc2ccccc21)C(F)(F)F (stereo unspecified)	103
N/C(=N\S(=O)(=O)c1ccc(Cl)cc1)N1CCSCC1	106
O=S(=O)(/N=C1\SCCN1S(=O)(=O)c1ccc(Cl)cc1)c1ccc(Cl)cc1	98
CCOc1ccc(C(=O)CC(N)C(=O)O)cc1 (stereo unspecified)	100
NS(=O)(=O)c1ccc(NC(=S)N2CCC(O)CC2)cc1	100
COc1cc(C)c(C(C)C)cc1S(=O)(=O)N1CCCC(C)C1 (stereo unspecified)	101
CN(C(=O)c1cn(C)c(=O)c2ccccc12)c1ccccc1	96
CCOC(=O)Nc1cc(C(=O)OCC)c(C)nc1C	100
Cc1nc(N2CCOCC2)[nH]c(=O)c1CCC(C)C	107
COC(=O)c1cn(CC(=O)NCc2ccco2)c2ccccc12	98
c1ccc2c(c1)N1CCCCCC1N2Cc1ccncc1 (stereo unspecified)	101
CCCC1CCC(c2ccc(C(=O)CCN(C)C)cc2)CC1 (stereo unspecified)	93
NC(=O)COC(=O)c1cnc(Cl)c(Cl)c1	105
O=C(O)c1ccn2c(C(=O)c3ccccc3)c(-c3ccccc3)cc2c1	94
O=C1Nc2ccccc2O/C1=C\c1ccc(C(=O)NCCC2=CCCCC2)cc1	108

Reformatted as a markdown table: 2 of the compounds above.
| structure | VACV E9 pol inh |
| --- | --- |
| COC(=O)c1cn(CC(=O)NCc2ccco2)c2ccccc12 | 98 |
| NC(=O)COC(=O)c1cnc(Cl)c(Cl)c1 | 105 |

Following part.
SMILES	VACV E9 pol inh
O=C(Nc1nn2c(-c3ccco3)nnc2s1)c1ccco1	95
COc1ccc(C)c2sc(N3CCN(c4nc5c(OC)ccc(C)c5s4)CC3)nc12	100
CCC1CCCCN1C(=O)CSc1nnc(C)n2c1cc1sccc12 (stereo unspecified)	102
CCc1cccc(NC(=O)C2CCCN2S(=O)(=O)c2ccc3c(c2)CC(C)N3C(C)=O)c1 (stereo unspecified)	92
CC12CCC(C(=O)N3CCc4ccccc4C3)(OC1=O)C2(C)C (stereo unspecified)	101
CC(=O)Nc1ccc(NC(=O)COC(=O)C2(c3ccc(Cl)cc3)CCCC2)cc1	89
O=C(NCCCN1CCCCC1)c1ccc2c(c1)sc1nc(-c3ccccc3)cn12	58*
O=C(c1cc2n(n1)C(C(F)(F)F)CC(c1ccco1)N2)N1CCCCC1 (stereo unspecified)	95
Oc1ccc(Br)cc1C=NCCC1=CCCCC1	100
CCOC(=O)C1CCN(S(=O)(=O)Cc2ccccc2)C1=O (stereo unspecified)	96
O=C(CSC1CCCCC1)Nc1nccs1	96
Cc1ccc(Cl)cc1NC(=O)c1ccc(Cn2cc(Cl)cn2)cc1	100

A different layout for some results above.
O=C(Nc1nn2c(-c3ccco3)nnc2s1)c1ccco1
  VACV E9 pol inh: 95
COc1ccc(C)c2sc(N3CCN(c4nc5c(OC)ccc(C)c5s4)CC3)nc12
  VACV E9 pol inh: 100
CCC1CCCCN1C(=O)CSc1nnc(C)n2c1cc1sccc12 (stereo unspecified)
  VACV E9 pol inh: 102
CCc1cccc(NC(=O)C2CCCN2S(=O)(=O)c2ccc3c(c2)CC(C)N3C(C)=O)c1 (stereo unspecified)
  VACV E9 pol inh: 92

(continued)
SMILES	VACV E9 pol inh
Cc1ccc(Oc2ncccc2NS(=O)(=O)c2ccc(-c3ccccn3)s2)c2c1CCC2	101
CCC(=O)Nc1c2c(nn1-c1ccccc1)CSC2	92
O=C(c1ccccc1)N(Cc1ccco1)C1(C(=O)Nc2ccccc2)CCCCC1	102
CN(C)/C=C/C(=O)c1cc(C(C)(C)C)cc(C(C)(C)C)c1O	112
O=C(NCCC12CC3CC(CC(C3)C1)C2)C1CCCCC1	100
COC(=O)c1cc2ccccc2c(=O)s1	112
Cc1cc(I)ccc1NC(=O)C(C(C)C)N1C(=O)c2ccccc2C1=O (stereo unspecified)	100
CC(=O)Nc1ccccc1NC(=O)c1ccco1	100
COc1cc2c(C(=O)N3CCN(c4ccccc4C)CC3)c(C)oc2cc1Br	92
CC(C)Sc1nnc(NC(=O)c2ccc3ccccc3c2)s1	101
O=C(Cc1nc2ccccc2s1)c1ccccc1	99
CN(Cc1ccccc1)C(=O)c1cc(-c2ccccc2)n[nH]1	93
C=CCNC1(C)CCS(=O)(=O)C1 (stereo unspecified)	86
CC(C)(C)NC(=O)CSc1nc2ccccc2[nH]1	100
O=C(O)/C=C/c1cccc(NC(=O)c2ccccc2)c1	98
COc1ccc(C2C(C#N)=C(N)SC3C(=O)N(c4ccc(C)cc4)C(=O)C32)cc1 (stereo unspecified)	95
CCN(CC)CCNC(=O)c1cc(Br)c(N)cc1OC	101
COc1ccc(NC(=O)c2ccccc2C(F)(F)F)cc1OC1CCCC1	109
CC(C)(C)SC(C(=O)N1CCOCC1)c1ccc(Br)cc1 (stereo unspecified)	98
CCc1ccc(NC(=O)C(C)Sc2ncnc3ccccc23)cc1 (stereo unspecified)	103
COc1cc(OC)cc(C(=O)c2c(C)c(C#N)c3ccccn23)c1	78
CCNC(=S)N1CCn2cccc2C1c1cccnc1 (stereo unspecified)	101
Cc1ccc2[nH]c(=O)c3cc(C(=O)NCCCN4CCN(c5ccc(F)cc5)CC4)sc3c2c1	88
CCc1cccc(O[C@@H]2O[C@@H]3COC(c4ccccc4)O[C@H]3[C@H](O)[C@H]2NC(C)=O)c1 (stereo partly specified)	99
Cc1cc(-c2cn(/N=C/c3ccc(Cl)cc3Cl)c(N)n2)c(C)s1	98
CCN1C(=O)/C(=C\c2cc(C)n(CC(F)(F)F)c2C)SC1=S	101
CCN1C(=O)CCS(=O)(=O)c2ccccc21	89
O=C1/C(=C/c2ccccn2)CC(c2ccccc2)C/C1=C\c1ccccn1 (stereo unspecified)	103
Nc1ccccc1C12CC3CC(CC(C3)C1)C2	97
COc1ccccc1Cn1ccn(CC(=O)NCCc2ccccc2)c(=O)c1=O	102
COc1cc(Cl)c(C)cc1NCC(O)Cn1nnnc1-c1ccccc1 (stereo unspecified)	85
Nc1c(C(=O)c2ccccc2)sc2nc3c(cc12)CCCC3	100
Cc1ccc(C)c([C@H]2[C@H](C(=O)c3ccccc3)N3c4ccccc4C=CC3C2(C#N)C#N)c1 (stereo partly specified)	99
CCc1cc(=O)oc2cc(C)cc(OCC(=O)C(C)(C)C)c12	100
O=C1NCCN1C(=O)c1cccc(Cl)c1	99
Cc1ccccc1NC(=O)c1cc2c(s1)-c1ccccc1S(=O)(=O)C2	91

Of the compounds above, these contain a tert-butyl group.
SMILES	VACV E9 pol inh
Cc1cc(-n2nc3ccc(Cl)cc3n2)c(O)c(C(C)(C)C)c1	97
CN(C)/C=C/C(=O)c1cc(C(C)(C)C)cc(C(C)(C)C)c1O	112
CC(C)(C)NC(=O)CSc1nc2ccccc2[nH]1	100
CC(C)(C)SC(C(=O)N1CCOCC1)c1ccc(Br)cc1 (stereo unspecified)	98
CCc1cc(=O)oc2cc(C)cc(OCC(=O)C(C)(C)C)c12	100

Next records.
SMILES	VACV E9 pol inh
CC(NCC1OCc2ccccc2CO1)c1ccccc1 (stereo unspecified)	88
CC(C)c1nc(/N=C/N(C)C)nc(=O)n1C	101
O=C(Cc1ccc(Cl)cc1)OCC(=O)N1CCCCCC1	87
CCOC(=O)CC(N)c1ccc(C)cc1 (stereo unspecified)	113
COc1ccc(NC(=O)C(NS(=O)(=O)c2ccc3c(c2)oc(=O)n3C)C(C)C)c(OC)c1 (stereo unspecified)	95
CCc1ccc(NC(=O)c2cnc3ccccn3c2=O)cc1	101
O=C(CSc1nnc(-c2ccncc2)o1)NC(=O)Nc1ccccc1	91
O=C(O)c1cccc(COc2ccc(Cl)cc2)c1	80
O=C(CSCc1ccco1)NC1CC1	99
Cc1cccc2nc(CSC(=S)NCc3cccnc3)cn12	72*
CCn1nccc1C(=O)NC1=C(C#N)CCC1	100
CC(=O)Oc1ccc(C(C)(C)c2ccc(OC(C)=O)cc2)cc1	101
CCC(=O)OC1(C)CC2CC(CN(C(=O)C3CCCCC3)C2)C1 (stereo unspecified)	95
CCc1c(C)[nH]c2ccccc2c1=O	100
O=C(O)CCCC[C@H]1SC[C@H]2NC(=O)N[C@H]21	101
CCc1ccc2cc(-c3ccccc3)cn2c1	100
CCOC(=O)c1sc(NC(C)=O)c(C#N)c1C	100
CCn1cc(C(=O)NCCC(C)C)c(=O)c2cc(S(=O)(=O)N3CCCCC3)ccc21	101
CCCCC[C@H](O)/C=C/[C@@H]1[C@@H](CC(=O)CCCCC(=O)O)[C@@H](O)C[C@H]1O	95
O=S(=O)(c1ccc(Cl)cc1)c1nc(N2CCOCC2)sc1Cl	100
CN1CCN(Cc2c(O)ccc3c(-c4ccccc4)cc(=O)oc23)CC1	100
CSC(=S)N(c1ccccc1)c1ccccc1	98
Cc1ccc(N/C=C(/C#N)c2ccsc2)cc1	112
Nn1c(CSCc2ccccc2)nnc1CSCc1ccccc1	98

6 records picked at random from those above:
SMILES	VACV E9 pol inh
Cc1ccc(N/C=C(/C#N)c2ccsc2)cc1	112
CN1CCN(Cc2c(O)ccc3c(-c4ccccc4)cc(=O)oc23)CC1	100
CCOC(=O)c1sc(NC(C)=O)c(C#N)c1C	100
CCc1c(C)[nH]c2ccccc2c1=O	100
CCc1ccc2cc(-c3ccccc3)cn2c1	100
Nn1c(CSCc2ccccc2)nnc1CSCc1ccccc1	98

The results go on:
SMILES	VACV E9 pol inh
CN(C)c1ccc(Cc2ccc(N(C)C)cc2)cc1	107
COc1ccc(CCNC(=O)NC2(C(F)(F)F)Oc3ccccc3O2)cc1OC	95
Cc1ccc(N2C(N)=C(C(N)=O)C(c3ccc(Cl)cc3)C3=C2CC(C)(C)CC3)cc1 (stereo unspecified)	100
COc1ccccc1CC(=O)Nc1cccc(NC(C)=O)c1	100
